NPYLR7 ag: agonists of mosquito NPYLR7 receptor, primary screen, cell-based, Aedes aegypti, calcium fluorescence, mosquito biting behavior. Aedes aegypti neuropeptide Y-like receptor 7 (NPYLR7). HEK293T NPYLR7/Galpha15, GCaMP6s calcium fluorescence. activation, % at 10 µM. 0.15% of 270,000 active. AID 1259423, 2018; in the data active = activation above about 40%;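 also: 0% = vehicle and 100% = reference agonist at the receptor; some compounds past the cut are filed as inactive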
NPYLR7 ag max-min: recorded beside NPYLR7 ag, whose call it bears; activation, %; measured here: Max-Min RFU normalised activation; some inactives read as strong as hits;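 span of the calcium signal over five minutes; 0% = vehicle and 100% = native peptide agonist; compound fluorescence can raise it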
* marks the source's active call; other numbers are inactive results; & = joins results of further samples. Not all compounds are listed; count on the stated rates, not on these rows.

CCOC(=O)c1ccc2c(c1)nc(SCc1cccc(C(=O)OC)c1)n2Cc1ccco1 was read as NPYLR7 ag 3.0 and NPYLR7 ag max-min 1.4.
For CCOCCn1c(=O)c2c(nc3n2CC(C)CN3c2cccc(Cl)c2)n(C)c1=O (configuration not stated) the results were NPYLR7 ag 3.0 and NPYLR7 ag max-min 1.2.
Cc1nc2ccccc2c(=O)n1N=Cc1ccccc1O was read as NPYLR7 ag -3.7 and NPYLR7 ag max-min -12.5.
`CCCN(CC(=O)Nc1cc(C)nn1C(C)(C)C)Cc1cnn(C)c1` gave NPYLR7 ag 0.6 and NPYLR7 ag max-min 3.2.
COc1ccccc1NC(=O)c1cc2nc(-c3ccc(Br)cc3)cc(C(F)(F)F)n2n1 was read as NPYLR7 ag 5.4 and NPYLR7 ag max-min 3.6.
Screening CCN1CCC(NC(=O)CN2CCN(S(=O)(=O)c3ccc(Br)c(C)c3)CC2)CC1 returned NPYLR7 ag 24.1 and NPYLR7 ag max-min 13.0.
CC1(Cc2ccc(C(F)(F)F)o2)C(=O)Nc2ccc(-c3cccnc3)cc21 (configuration not stated) was read as NPYLR7 ag 2.8 and NPYLR7 ag max-min 1.8.
O=C(Nc1ccc2c(c1)OCO2)N1CC(=O)N2CCc3cc(F)ccc3C2C1 (configuration not stated) was read as NPYLR7 ag -0.7 and NPYLR7 ag max-min 13.0.
For COc1ccc(C)cc1NC(=O)N1CCc2cc(OC)c(OC)cc2C1c1cccc(Cl)c1 (configuration not stated) the results were NPYLR7 ag 19.9 and NPYLR7 ag max-min 9.8.
Screening CN(Cc1ccc(Cl)cc1Cl)C(=O)c1cccc(CN2C(=O)CSC2=O)c1 returned NPYLR7 ag 3.6 and NPYLR7 ag max-min 2.6.
COc1ccc(OC)c2[nH]c(=O)c(CCNC(=O)CCC3CCCCC3)cc12 was read as NPYLR7 ag 1.7 and NPYLR7 ag max-min 50.1.
`CCSc1nc(CC(=O)N(C)Cc2csc(C(C)C)n2)cs1` gave NPYLR7 ag 16.8 and NPYLR7 ag max-min 5.5.
`Cn1cc(CC(=O)NCc2cnn3ccccc23)c2ccccc21` gave NPYLR7 ag -3.2 and NPYLR7 ag max-min -8.7.
Screening c1cncc(-c2noc(C3CCCN(Cc4cc5n(n4)CCCNC5)C3)n2)c1 (configuration not stated) returned NPYLR7 ag 11.8 and NPYLR7 ag max-min 12.0.
`CN(CC1COCCO1)C(=O)c1cn(Cc2cccc(C(F)(F)F)c2)nn1` (configuration not stated) gave NPYLR7 ag 6.5 and NPYLR7 ag max-min 5.5.
`O=C1CC(C(=O)NCCCCc2ccccc2)c2ccc(F)cc2N1` (configuration not stated) gave NPYLR7 ag 3.3 and NPYLR7 ag max-min 0.1.
`Cc1ccc(Cn2nc(-c3ccc4c(c3)OCO4)ccc2=O)cc1` gave NPYLR7 ag 10.4 and NPYLR7 ag max-min 2.6.
`COC(=O)C1=C(C)N(C2CC2)C(=O)NC1c1ccc(Cl)cc1Cl` (configuration not stated) gave NPYLR7 ag 1.3 and NPYLR7 ag max-min 7.7.
Screening CCSc1nc(NCC(C)C)c2cnn(CCNC(=O)c3ccc4ccccc4c3)c2n1 returned NPYLR7 ag -0.3 and NPYLR7 ag max-min -2.7.
COc1cc(C)c(NC(=O)c2cc(C)c(C)s2)cc1OC was read as NPYLR7 ag 1.0 and NPYLR7 ag max-min 0.9.

A draw from above in order of number of heavy atoms, high to low.
CCOC(=O)c1ccc2c(c1)nc(SCc1cccc(C(=O)OC)c1)n2Cc1ccco1 was read as NPYLR7 ag 3.0 and NPYLR7 ag max-min 1.4.
Screening c1cncc(-c2noc(C3CCCN(Cc4cc5n(n4)CCCNC5)C3)n2)c1 (configuration not stated) returned NPYLR7 ag 11.8 and NPYLR7 ag max-min 12.0.
`Cn1cc(CC(=O)NCc2cnn3ccccc23)c2ccccc21` gave NPYLR7 ag -3.2 and NPYLR7 ag max-min -8.7.

Later entries.
`COc1ccccc1NC(=O)N1CCC2(CC1)C(=O)N(CC(=O)NCCc1ccccn1)CN2c1ccccc1` gave NPYLR7 ag 8.4 and NPYLR7 ag max-min 14.9.
For CCCCOc1ccc(C2=N/C(=C\C(Cl)=C\c3ccccc3)C(=O)O2)cc1 the results were NPYLR7 ag -2.4 and NPYLR7 ag max-min -5.0.
`CCOC(=O)C1=C(C)N(c2ccc3c(c2)OCCO3)C(=S)NC1c1cccc(F)c1` (configuration not stated) gave NPYLR7 ag 8.2 and NPYLR7 ag max-min 11.6.
Cc1c(C#N)c(=O)c(-[n+]2ccccc2)c(S)n1-c1ccc(Cl)cc1 was read as NPYLR7 ag 3.9 and NPYLR7 ag max-min -1.7.
`Cc1c(C(=O)N(C)Cc2ccc(F)cc2)sc(=O)n1Cc1ccc2ccccc2c1` gave NPYLR7 ag -3.1 and NPYLR7 ag max-min -4.6.
`CCOc1ccc(-n2c(C(C)N(C)C(=O)C(Cl)c3ccccc3)nc3ccccc3c2=O)cc1` (configuration not stated) gave NPYLR7 ag -1.4 and NPYLR7 ag max-min 12.5.
Screening CC(C)CNC(=O)c1cccc(CN(C)C2CCS(=O)CC2)c1 (configuration not stated) returned NPYLR7 ag 2.0 and NPYLR7 ag max-min 2.3.
For CSc1ccccc1C(=O)NC(C)c1cnn(-c2ccccc2C)c1C (configuration not stated) the results were NPYLR7 ag 11.7 and NPYLR7 ag max-min -0.2.
Screening COc1cccc(OC)c1-c1ccc(-n2cncc2C(=O)NCc2ccc(-c3ccccc3)cc2)cc1 returned NPYLR7 ag 6.3 and NPYLR7 ag max-min 2.4.
Cc1ccc(-n2ncc3c(=O)n(NC(=O)C45CC6CC(CC(C6)C4)C5)cnc32)cc1C was read as NPYLR7 ag 13.2 and NPYLR7 ag max-min 8.3.
NC(=O)C1CCN(C(=O)c2cc(-c3ccco3)nn2-c2cccc(Cl)c2)CC1 was read as NPYLR7 ag -2.2 and NPYLR7 ag max-min 11.6.
Screening O=C(Cn1cnc2sccc2c1=O)Nc1nccs1 returned NPYLR7 ag -0.8 and NPYLR7 ag max-min -5.0.
CC(Cn1cncn1)NC(=O)Nc1sc2c(c1C(=O)N1CCOCC1)CCC(C)(C)C2 (configuration not stated) was read as NPYLR7 ag 0.8 and NPYLR7 ag max-min -1.6.
`CC(C(=O)O)N1C(=O)/C(=C/c2cccc3ccccc23)SC1=S` (configuration not stated) gave NPYLR7 ag -3.3 and NPYLR7 ag max-min -7.7.
Screening CCOc1ccccc1NC(=O)c1c(NC(=O)Cc2ccccc2)sc2c1CCCC2 returned NPYLR7 ag -3.4 and NPYLR7 ag max-min -4.1.
Screening CCOC1CCN(C(=O)c2c[nH]c3c(C)cccc3c2=O)CC1 returned NPYLR7 ag 2.9 and NPYLR7 ag max-min -0.5.
CCCNC(=O)Cn1c(-n2nc(C)cc2C)nc(C)c(C)c1=O was read as NPYLR7 ag -1.2 and NPYLR7 ag max-min 5.0.
`O=C(NC1CCSc2ccccc21)c1cc(=O)c2ccccc2o1` (configuration not stated) gave NPYLR7 ag 8.6 and NPYLR7 ag max-min 8.7.
O=C(CN(Cc1ccco1)C(=O)COc1ccc(Cl)cc1)Nc1cc(-c2ccccc2)nn1-c1ccccc1 was read as NPYLR7 ag 5.9 and NPYLR7 ag max-min 11.6.
For CC(C)NC(=O)NC(=O)CSc1ncnc2c1cnn2-c1ccccc1 the results were NPYLR7 ag 1.4 and NPYLR7 ag max-min -2.2.

Compounds listed so far that have two or more sulfur atoms:
`CCSc1nc(CC(=O)N(C)Cc2csc(C(C)C)n2)cs1` gave NPYLR7 ag 16.8 and NPYLR7 ag max-min 5.5.
Screening O=C(Cn1cnc2sccc2c1=O)Nc1nccs1 returned NPYLR7 ag -0.8 and NPYLR7 ag max-min -5.0.
`CC(C(=O)O)N1C(=O)/C(=C/c2cccc3ccccc23)SC1=S` (configuration not stated) gave NPYLR7 ag -3.3 and NPYLR7 ag max-min -7.7.

Next entries follow.
`CNC(=O)c1ccc(-c2ccc3nnc(-c4ccc(OCCCN(C)C)cc4)n3c2)cc1` gave NPYLR7 ag 39.9 and NPYLR7 ag max-min 30.8.
`O=S(=O)(c1ccccc1OC(F)(F)F)N1CCC(n2nc(-c3ccccc3)cc2-c2ccccc2)CC1` gave NPYLR7 ag 16.6 and NPYLR7 ag max-min 9.8.
For C=CCn1cnc(-c2ccccc2)c1-c1ccc(CN(C)S(C)(=O)=O)o1 the results were NPYLR7 ag -3.0 and NPYLR7 ag max-min -4.0.
`CCC(NC(=O)CCn1c(C)cc2ccccc21)c1cccnc1` (configuration not stated) gave NPYLR7 ag -2.9 and NPYLR7 ag max-min -7.5.
O=C(CCc1n[nH]c(=S)[nH]c1=O)NCc1cccc(C(F)(F)F)c1 was read as NPYLR7 ag -4.0 and NPYLR7 ag max-min -8.6.
Screening O=C(Nc1ccc(N2CCCCC2)c(C(=O)NCc2ccccc2)c1)c1ccc2ccccc2c1 returned NPYLR7 ag -10.8 and NPYLR7 ag max-min -1.3.
`N#Cc1ccc(C=NNc2ncc(C(F)(F)F)cc2Cl)cc1` gave NPYLR7 ag -2.5 and NPYLR7 ag max-min -1.9.
Screening CCOCC(O)Cn1ccnc1-c1c(OC)ccc(F)c1F (configuration not stated) returned NPYLR7 ag 3.3 and NPYLR7 ag max-min -0.5.
`COc1ccc(NC(=O)C2(C)CCN2C(=O)c2cc(C)n(C)n2)cc1OC` (configuration not stated) gave NPYLR7 ag 6.0 and NPYLR7 ag max-min 3.7.
O=C(NCCCc1ccco1)c1c(O)cccc1O was read as NPYLR7 ag -2.9 and NPYLR7 ag max-min -3.3.
Screening CC1CCN(c2nc(-c3ccccc3)nc3c2CN(S(=O)(=O)c2cc(Cl)ccc2Cl)CC3)CC1 returned NPYLR7 ag 30.5 and NPYLR7 ag max-min 25.9.
For CSc1ccc(Cn2cc(C(=O)NCc3cccc(C(F)(F)F)c3)sc2=O)cc1 the results were NPYLR7 ag 9.7 and NPYLR7 ag max-min 3.8.
`Clc1ccc2oc(-c3cccnc3)nc2c1` gave NPYLR7 ag 1.8 and NPYLR7 ag max-min 8.6.
`CCn1c(=O)c(C(=O)N2CCCC2)nn(-c2cccc(C)c2)c1=O` gave NPYLR7 ag 2.5 and NPYLR7 ag max-min 13.1.
Screening COCCn1c(SC(C)C#N)nc2sc3c(c2c1=O)CCC3 (configuration not stated) returned NPYLR7 ag 5.0 and NPYLR7 ag max-min 4.3.
For CCCCCOc1cc(C)ccc1S(=O)(=O)NCc1cccnc1 the results were NPYLR7 ag -6.5 and NPYLR7 ag max-min -5.0.
Screening Cn1nnnc1SCCNC(=O)[C@@H]1Cc2ccccc2N1 returned NPYLR7 ag -0.6 and NPYLR7 ag max-min -1.2.
`CN1[C@@H]2CC[C@H]1CC(OC(=O)c1c[nH]c3ccccc13)C2` (some centres not stated) gave NPYLR7 ag -4.0&-8.4 and NPYLR7 ag max-min -10.3&-15.3.
O=S(=O)(c1ccc2c(c1)OCCCO2)N1CCCCC1c1nc2ccccc2s1 (configuration not stated) was read as NPYLR7 ag 7.7 and NPYLR7 ag max-min 13.6.
Screening Cn1cc(Nc2cccc(NC(=O)C3CC3c3ccco3)c2)cn1 (configuration not stated) returned NPYLR7 ag 15.7 and NPYLR7 ag max-min 12.0.
`Cc1nc(SCC(=O)N(C)Cc2ccc3nsnc3c2)n[nH]1` gave NPYLR7 ag -0.5 and NPYLR7 ag max-min -1.9.
Screening CCc1ccc(C(=O)Cn2nc(-c3ccco3)c3sc(C)nc3c2=O)cc1 returned NPYLR7 ag 4.5 and NPYLR7 ag max-min 1.9.
Screening CC(NC(=O)CCCN1C(=O)c2cccc3cccc(c23)C1=O)C12CC3CC(CC(C3)C1)C2 (configuration not stated) returned NPYLR7 ag -2.4 and NPYLR7 ag max-min -4.5.
For Cc1cc(OC(=O)C2CC(=O)N(c3ccc4c(c3)OCCO4)C2)ccc1C(C)C (configuration not stated) the results were NPYLR7 ag 9.8 and NPYLR7 ag max-min 6.1.
For Cc1nc(CCNC(=O)CC2COCCN2)nc2c1CCC2 (configuration not stated) the results were NPYLR7 ag -1.8 and NPYLR7 ag max-min -1.9.
`Cc1cc(NC(=O)CNc2cc(Cl)ccc2OCC2CCCO2)no1` (configuration not stated) gave NPYLR7 ag 1.3 and NPYLR7 ag max-min -1.5.
For CN(C)c1ncccc1CNCc1cccc(Oc2ccccc2)c1 the results were NPYLR7 ag 2.9 and NPYLR7 ag max-min 1.7.
For CCCNC(=O)c1nnn(-c2cccc3c2CCN(c2ncccc2C#N)C3)c1C the results were NPYLR7 ag 1.8 and NPYLR7 ag max-min 0.6.
`C(=C\c1ccco1)/CN1CCC(Cc2noc(C3CC3)n2)CC1` gave NPYLR7 ag 3.0 and NPYLR7 ag max-min 1.3.
O=[N+]([O-])c1ccc(CN(Cc2cccn2Cc2ccc(F)cc2)CC2CCCCC2)cc1 was read as NPYLR7 ag -6.0 and NPYLR7 ag max-min -14.8.
Screening O=C(Cc1ccc(F)cc1)NNC(=O)c1c(F)cccc1F returned NPYLR7 ag -0.5 and NPYLR7 ag max-min -4.8.
O=C(NC(=S)Nc1ccc(Nc2ccccc2)cc1)C1CC1 was read as NPYLR7 ag 10.0 and NPYLR7 ag max-min 9.8.
CC(=O)Nc1ccc(C(=O)N2CCN(c3ccccc3)CC2)s1 was read as NPYLR7 ag -4.7 and NPYLR7 ag max-min -4.5.
COc1ccc(C2C3(C#N)C(N)=NC(OC)(OC)C23C#N)cc1 (configuration not stated) was read as NPYLR7 ag 11.6 and NPYLR7 ag max-min 5.5.
`O=C(NCCn1ncc2c(N3CCCC3)ncnc21)c1cc(-c2ccccc2)on1` gave NPYLR7 ag 0.5 and NPYLR7 ag max-min -1.2.
`CC1CCC2[C@](C)(CO)[C@@H](O)CC[C@]2(C)[C@@]12CCC1(COC(=O)C1)O2` (some centres not stated) gave NPYLR7 ag 5.9 and NPYLR7 ag max-min 3.8.
Cc1c(CNC2CCCN(c3ncccn3)C2)cc(C#N)n1C (configuration not stated) was read as NPYLR7 ag 1.6 and NPYLR7 ag max-min -0.5.
